# Source: PubChem BioAssay
# Yeast UUG start: modulators of yeast start codon fidelity, primary screen, whole organism, S. cerevisiae, single point, plate reader | S. cerevisiae UUG-firefly luciferase reporter, luminescence/redox ratio | AID 602363, 2012 | activity score, % at 18.7 µM | actives 0.13% (n = 350,000);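 active = replicate mean at a twofold rise or more, about +100% in these data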;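 also: firefly luciferase made from a UUG start codon reports start codon fidelity; reporter light over untreated wells divided by growth signal over untreated wells; some hits fall short of that in this replicate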
# MT1-MMP act inh: blockers of MT1-MMP proenzyme processing, primary screen, HT1080 RFP-PRO-GFP cells, GFP/RFP fluorescence; GFP/RFP ratio change, % at 20 µM; Matrix metalloproteinase-14 (Homo sapiens), P50281; actives 0.061% (n = 360,000); AID 651647, 2012; GFP/RFP ratio fluorescence, overnight; percent of plate control window, DMSO zero;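 active = GFP/RFP ratio change of at least 30% with cell ATP level not reduced by more than half and red fluorescence within 50% of control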; also: strong numbers were not always called active
#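 system = RFP-PRO-GFP reporter HT1080 cells | dosing = 20 µM single dose, 1% DMSO | timing = overnight cell settling, then overnight compound exposure, 37 °C, 5% CO2 | read-out basis = GFP/RFP fluorescence ratio | controls = DMSO and RFP-L50D-GFP cell wells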
# Env fusion inh: inhibitors of HIV-1 Env-driven cell-cell fusion, primary screen, HeLa-JRFL effector, CEM21 target cells, luciferase. inhibition, % at 12.3 µM. actives 1.1% (n = 360,000);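 active = mean replicate inhibition score of at least 50 and every replicate individually at or above 50; inconclusive = only one of the two criteria met; inactive = mean below 50 and not all replicates reaching 50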;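 also: 0% = plate neutral controls and 100% = maraviroc near 300 nM; one replicate is shown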
# Rce1 inhib: yeast Rce1p protease inhibitors, primary screen, biochemical, fluorescence, cell-free homogeneous | actives 0.27% (n = 290,000) | CAAX prenyl protease 2 (Saccharomyces cerevisiae (strain ATCC 204508 / S288c)), Q03530 | yeast membranes, quenched prenylated peptide cleavage fluorescence | calls only;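 active = fall in fluorescence gain of 50% or more versus controls, with final raw signal at or below 3038400; inconclusive = same 50% fall but final raw signal above 3038400; inactive = fall in fluorescence gain under 50%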;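 also: plate controls were neutral control wells for no effect and wells lacking membranes for full effect; tested at 10 µM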
# Target sequence (Q03530 whole entry, looked up): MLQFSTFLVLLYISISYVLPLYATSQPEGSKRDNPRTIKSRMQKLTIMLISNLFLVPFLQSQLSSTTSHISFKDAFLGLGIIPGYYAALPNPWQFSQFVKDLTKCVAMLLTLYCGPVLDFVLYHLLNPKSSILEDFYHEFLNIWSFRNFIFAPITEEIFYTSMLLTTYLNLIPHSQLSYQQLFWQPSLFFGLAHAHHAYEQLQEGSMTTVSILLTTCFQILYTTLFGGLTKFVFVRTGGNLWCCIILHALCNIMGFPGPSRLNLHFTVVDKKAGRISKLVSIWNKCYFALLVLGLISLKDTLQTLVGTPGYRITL
# PABP polyA inh: PABP poly(A) RNA binding inhibitors, primary screen, biochemical, fluorescence polarization, uHTS | AID 2014, 2009 | actives 1% (n = 290,000) | inhibition, % at 35 µM;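 active = 50% or more with normal probe brightness, or confirmed in later tests; inconclusive = above 50% with abnormal brightness, or retests that disagree; inactive = below 50% or failed in later tests; about a fifth of its hits are not listed in these tables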;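 also: calls also rest on retests at 20 µM and on dose response follow-up; controls were probe without protein and protein plus probe with vehicle; some compounds called inactive have numbers as strong as hits; many hits fall short of the cut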
# CSC inhib: cancer stem cell viability inhibitors, primary screen, luminescence. cancer stem cell-like cells viability. inhibition, % at 7.5 µM. actives 1.1% (n = 300,000). AID 2717, 2010;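 active = mean at 75% or more and at least half the replicates too; inconclusive = mean and replicates disagree; tested in HMLE shEcad cells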;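 also: 0% = median of negative and 100% = median of positive control wells; the first replicate is given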
# eIF4H inh: human eIF4H binding inhibitors, primary screen, translation initiation inhibitor project, biochemical, uHTS, fluorescence polarization. Eukaryotic translation initiation factor 4H (Homo sapiens), Q15056. eIF4H fluorescence polarization binding assay. inhibition, % at 35 µM. actives 0.94% (n = 290,000);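 active = 50% or more with normal probe brightness, or confirmed in later tests; inconclusive = above 50% with abnormal brightness, or retests that disagree; inactive = below 50% or failed in later tests; about a fifth of its hits are not listed in these tables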;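 also: calls also rest on retests at 20 µM and on dose response follow-up; 0% = protein and probe with vehicle and 100% = probe without protein; strong numbers were not always called active; many hits fall short of the cut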
# MT1-MMP act inh RFP: also measured in MT1-MMP act inh; calls as there; RFP signal change, %; measured here: RFP expression control read;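 0 = vehicle wells; hits needed this value within 50% of zero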
# Starred values were filed as active, the others as inactive; i = inactive; ? = inconclusive; / = not tested or not shown. Only part of the results is shown (hit frequency here may not be typical).
SMILES,PABP polyA inh,MT1-MMP act inh,Rce1 inhib,CSC inhib,eIF4H inh,Env fusion inh,MT1-MMP act inh RFP,Yeast UUG start
CC[N+]1(CC)CC2=Cc3ccccc3CC2C1 (stereo not drawn),4,1,i,-15,4,8,0,1
COc1cc(/C=N/NC(=O)c2cccc([N+](=O)[O-])c2)ccc1OCc1ccc(C)cc1,-2,8,i,0,-3,-70,-5,-22
COC(CNC(=O)c1ccc2c3c(onc13)-c1ccccc1C2=O)OC,?,34*,i,84*,?,-135,36*,-28
O=C(Nc1cccc(F)c1)N1CCCC(CNS(=O)(=O)Cc2ccccc2)C1 (stereo not drawn),2,2,i,9,-6,16,-1,/
CCOc1ccc(NC(=O)/C=C/c2ccccc2)c([N+](=O)[O-])c1,-2,1,i,9,47,-40,1,/
NS(=O)(=O)c1ccc(NC(=O)c2ccc(CNS(=O)(=O)c3cc(C(F)(F)F)ccc3Cl)cc2)cc1,-3,0,i,0,-17,21,-2,-11
O=C(/C=C/c1ccc(N2CCOCC2)cc1)c1ccccc1,-11,-7,i,-9,?,-12,1,/
Cc1ccc(-n2c(=O)cc(N3CCC(C)CC3)[nH]c2=O)cc1,-1,0,i,-12,-4,-32,4,-14
COc1ccc(NC(=O)Nc2ccc(Br)cn2)cc1OC,5,-1,i,-8,-4,-144,0,-13
c1ccc(Oc2nc3ccccc3n3cccc23)cc1,0,3,i,-3,-1,/,2,-3
CCn1cc(C(=O)N[C@H](C(=O)NCCO)C(C)C)c(=O)c2cc3c(cc21)OCO3,0,-1,i,-13,-7,3,2,-6
COc1ccc(C2C(C(=O)c3ccc(C)o3)=C(O)C(=O)N2Cc2ccco2)cc1OC (stereo not drawn),8,2,i,1,-4,10,2,-10
CC(=O)c1cccc(NC(=O)/C(=C/c2ccco2)NC(=O)c2ccco2)c1,14,-3,i,-6,8,-10,8,-6
CCOC(=O)CSc1nc(C)c2ccc(C)cc2n1,-1,3,i,-8,1,/,4,/
CC1CCCC(C)N1C(=O)COC(=O)CNC(=O)c1ccccc1F (stereo not drawn),/,0,/,/,/,-2,-3,-21
CN(C)S(=O)(=O)c1cc(NC(=O)COC(=O)CC2CC3CCC2C3)ccc1Cl (stereo not drawn),/,5,/,-7,/,/,1,-3
C=C1C(=O)O[C@H]2[C@H]1[C@@H](O)CC(=C)[C@@H]1CC(=O)[C@@H](C)[C@H]21,-7,-5,i,34,9,/,-5,-11
O=C(CNC(=O)c1ccc(Br)o1)NNC(=O)COc1ccccc1Cl,/,-2,/,-9,/,/,3,9
CC(C=Cc1ccccc1)=NNS(=O)(=O)c1ccc([N+](=O)[O-])cc1,/,7,/,/,/,15,-3,-11
O=C(Nc1cccs1)Nc1ccc(F)cc1F,-4,-2,i,-2,44,-21,-6,/
O=C(COC(=O)c1ncc(Cl)c(Cl)c1Cl)NCc1cccs1,/,-3,i,-11,/,81*,-2,1
CCn1nnnc1SCC(=O)Nc1nc2ccc(OC)cc2s1,6,0,i,14,-4,-23,1,-7
O=S(=O)(c1ccc(F)cc1)N1CCc2ccccc2C1,-1,2,i,-8,-1,6,-1,-10
Cc1c(O)ccc2c3c(c(=O)oc12)CCCC3,-7,-2,/,-3,-2,-76,0,-22
O=C(Nc1ccc([N+](=O)[O-])cc1)N1CCCCC1,7,-1,i,-5,9,-4,-3,/
CC(C)c1ccc(CC(=O)N2CCC2(C)C(=O)NS(=O)(=O)c2ccc(F)cc2F)cc1 (stereo not drawn),/,-1,/,/,/,24,2,-6
COC(=O)c1ccc(NC(=O)c2cc[n+](Cc3ccccc3)cc2)cc1,14,-1,i,-12,-8,-58,-7,0
COC(C[C@H](O)[C@H](C)[C@H](O)COCc1ccccc1)OC,5,0,i,/,5,8,-3,-8
O=C(NS(=O)(=O)c1ccc(Cl)cc1)c1ccccc1,-4,-4,i,-17,-1,13,0,-8
Cc1ccc(S(=O)(=O)N2CCOCC2)cc1NC(=O)CSc1nnc(C2CC2)n1C1CC1,/,1,/,-3,/,/,-1,2
COC(=O)c1ccc(/C=N/N2CCN(Cc3ccc(Cl)cc3)CC2)cc1,-12,2,i,-6,-8,5,-8,-12
COC(=O)/C(C#N)=C/c1c(N2CCN(c3cccc(Cl)c3)CC2)nc2c(C)cccn2c1=O,-6,-6,i,7,-7,18,-8,-8
COc1ccc(CN2C(=O)NC3(CCCc4ccccc43)C2=O)cc1F (stereo not drawn),-9,-5,i,-6,-3,-1,-9,-10
CNC(=O)c1c(NC(=O)c2ccc(S(=O)(=O)N(C)c3ccccc3)cc2)sc2c1CCN(C(C)C)C2,?,/,i,42,?,5,/,/
CCOC(=O)CCNC(=O)N1CCCC(N(C)CCc2ccccc2)C1 (stereo not drawn),5,4,i,-3,5,-9,5,-23
CCn1cc(Br)c(C(=O)NC(C)c2ccccc2)n1 (stereo not drawn),2,3,i,-10,-6,/,-1,-22
COc1cc(/C=N/NC(=O)CN(CCc2ccccc2)S(=O)(=O)c2ccc(NC(C)=O)cc2)cc(OC)c1OC,18,-7,i,-6,-12,-74,-5,/
CC(=O)c1cccc(-c2ccc3c(=O)[nH]c(Nc4ccccc4)cc3c2)c1,/,-58,i,10,/,-23,2,-83
CC(=O)Nc1c(Cl)cc2c(c1Cl)Cc1cc(N)ccc1-2,/,3,/,/,/,-9,2,-17
O=C(NCC(c1ccco1)N1CCc2ccccc21)c1ccccc1Cl (stereo not drawn),/,-3,i,-15,/,-1,3,3
O=C(COC(=O)c1ccc2c(c1)OCCO2)NCc1ccc(Cl)cc1,/,-3,/,/,/,-22,2,-15
O=C(O)c1cccc(S(=O)(=O)Nc2ccccc2Cl)c1,-4,10,i,-11,3,/,6,-15
COc1ccc(CCNC(=O)CCc2ccccc2O)cc1OC,/,-2,/,/,/,10,-2,-20
CCOC(=O)N1CCC(NS(=O)(=O)c2ccc(C)cc2)CC1,-11,1,i,-11,3,4,-1,0
COc1ccc2cc(CCNC(=O)c3cccc([N+](=O)[O-])c3)c(=O)[nH]c2c1,22,-1,i,1,1,0,-3,/
O=C(O)c1ccnc(C(=O)O)c1,13,7,i,14,11,-72,7,/
COc1ccc(/C(N)=N/OC(=O)CC2CCCCC2)cc1,-2,-14,/,2,-3,-27,0,-11
Nc1c(Cl)cc(-c2[nH]c3cc(C(=O)NCCO)ccc3c(=O)c2O)cc1Cl,14,-12,i,4,15,-2,-6,9
Cc1cccc(NC(=O)C2NC(=O)CC2c2ccccc2)c1C (stereo not drawn),8,0,i,-8,-2,-13,-1,-23
COc1cc(NC(=O)c2ccc3c(c2)OCCO3)ccc1NC(=O)c1ccco1,12,0,i,-13,-10,9,2,/

# Next results follow:
SMILES,PABP polyA inh,MT1-MMP act inh,Rce1 inhib,CSC inhib,eIF4H inh,Env fusion inh,MT1-MMP act inh RFP,Yeast UUG start
CCn1nc(NS(=O)(=O)c2ccc(NC(C)=O)cc2)c2cc3cc(C)ccc3nc21,16,5,i,1,-9,-1,2,-4
COCCN1CCN(C(=O)c2cc(COc3ccc(F)cc3F)on2)CC1,18,-2,i,-29,-8,9,0,4
O=C(Nc1cccnc1Cl)c1ccc(=O)oc1,21,-4,i,-5,31,-61,4,6
COc1ccccc1C(=O)N1CCN(Cc2ccc3c(c2)OCO3)CC1,5,-5,i,-1,2,18,-9,-34
Cc1c(C(=O)NCc2ccoc2)oc2ccc3c(c12)C(=O)CC(C)(C)O3,12,-8,i,8,4,/,-2,-14
Cc1ccc(OC(C)C(=O)N/N=C/c2ccccn2)cc1 (stereo not drawn),10,1,i,-12,-4,-1,2,/
CCOC(=O)Cn1nc(C)c(NC(=O)COc2ccc(OC)cc2)c1C,-2,-1,i,-6,-9,16,-2,-4
O=C(NNC(=S)Nc1ccc(F)cc1)c1ccccc1OC(F)F,1,9,i,-5,7,-29,5,-15
CC(=O)Nc1ccc(S(=O)(=O)NCC(=O)OCC(=O)N2CCc3ccccc32)cc1,-12,-4,i,5,-4,/,2,-10
Cc1cccc(OCc2nnc(SCCC(=O)O)n2-c2ccccc2)c1,-3,-3,i,5,-11,15,-2,-12
CCC1(c2ccccc2)NC(=O)N(CC(=O)NCc2ccc(F)cc2)C1=O (stereo not drawn),7,-1,i,-3,-12,-1,0,-7
O=C(NNS(=O)(=O)c1ccc(Cl)cc1)c1cccc(S(=O)(=O)N2CCOCC2)c1,3,1,i,-7,-7,-17,2,-5
CC(C)NC(=O)Nc1cccs1,6,1,i,-5,38,/,8,-5
O=C(COc1ccc(S(=O)(=O)N2CCCC2)cc1Cl)NCc1ccc2c(c1)OCO2,3,-4,i,9,0,/,-6,-15
O=C(N/N=C/c1c[nH]c2ccccc12)c1cccc([N+](=O)[O-])c1,23,3,i,14,1,4,1,0
CC1=C(C(=O)N(C(C)C)C(C)C)CC(CC(=O)NCc2ccco2)C(=O)N1CCCN1CCCC1=O (stereo not drawn),/,4,/,/,/,-10,4,9
Cc1cc(C)c2cc(C#N)c(SCC(=O)NCc3ccco3)nc2c1,13,-8,i,14,14,/,-3,6
CC(C)c1ccc(NC(=O)Cn2ncc3ccccc32)cc1,3,4,i,-1,-9,-45,-2,-20
COc1cccc(NC(=O)c2ccc(NCCCN3CC(C)CC(C)C3)c([N+](=O)[O-])c2)c1 (stereo not drawn),-5,6,i,/,2,2,-1,/
CC12CCC(C(=O)NCc3ccc4c(c3)OCO4)(OC1=O)C2(C)C (stereo not drawn),-1,3,i,-11,-4,/,6,-12
CCCC[C@@H]1C[C@H]1[C@@H](NC(=O)c1ccco1)c1ccc(C(=O)OC)cc1,/,/,i,-1,/,-10,/,/
Cc1cc(C(=O)NCC(C)C)c2ccccc2n1,1,-6,i,-4,3,18,4,9
CCOC(=O)N1CCN(S(=O)(=O)c2ccc(C(=O)NNc3nc4cc(C)cc(C)c4s3)cc2)CC1,-8,4,i,103*,5,/,-6,-28
C=C(C)CC(Nc1ccc(OC)cc1)c1ccco1 (stereo not drawn),-7,-1,i,6,6,14,1,/
Cc1ccc(NC(=O)C(=O)NCCCN2CC(C(=O)O)CC2=O)cc1 (stereo not drawn),5,2,i,-7,-8,7,2,-14
COc1ccc2cc(CN(CC3CCCO3)C(=S)Nc3ccccc3)c(=O)[nH]c2c1 (stereo not drawn),-1,-5,i,6,-8,5,-16,/
CC(=O)Nc1cccc(OCC(=O)Nc2sccc2C(N)=O)c1,7,-4,i,-9,32,-11,-13,-12
CC1CN(C(=O)CSc2nnc(NC(=O)NC(C)(C)C)s2)CC(C)O1 (stereo not drawn),/,2,i,19,/,/,0,7
Cc1cc(NC(=O)c2noc3c2CCc2ccccc2-3)no1,-13,-3,i,9,-10,1,0,-16
Cc1ccc(C)c(N(C)C(=O)c2cc3c(=O)[nH]c4ccc(C)cc4c3s2)c1,-1,-5,i,34,-2,5,-1,/
